Six1-Eya2 inh: qHTS Assay for Inhibitors of the Six1/Eya2 Interaction; AlphaScreen GST-Six1/His-Eya2 binding, biochemical; stronger effect = lower value; control for the full effect not named in the record; activity change, % (no concentration beside the values); 0.56% of 360,000 active; AID 651725, 2012; in the data active = activity change below about -65%; inconclusive = about -30% to -65%; inactive = above about -30%; further: on the % scale 0 is the no-effect control and ±100 the full control effect; compound concentration not given in the record
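AlphaScreen with GST-Six1 and His-Eya2 (5X mix: 250 nM and 500 nM), glutathione donor and nickel acceptor beads; buffer 50 mM Tris pH 8.0, 300 mM NaCl, 1 mM TCEP; 1 h at 37 C in the dark.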
CtBP-E1A inh: qHTS Assay for Inhibitors of the CtBP/E1A Interaction. CtBP / adenovirus E1A interaction (AlphaScreen). AlphaScreen GST-E1A/His-CtBP binding, 1536-well; stronger effect = lower value; control for the full effect not named in the record. activity change, % (no concentration beside the values). 0.49% of 340,000 active. AID 651724, 2012; in the data active means activity change below about -65%; inconclusive means about -30% to -65%; inactive means above about -30%; further: on the % scale 0 is the no-effect control and ±100 the full control effect; compound concentration not given in the record
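Steps: dispense buffer (Tris pH 8.0, NaCl 300 mM, TCEP 1 mM, BSA, Tween 20); add 5X protein mix (GST-E1A, His-CtBP, 125 nM each); pin 23 nL compound; 2 h at 37 °C, dark; add 5X beads (50 ug/mL); 1 h; read.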
PINK1 modulator: A Quantitative High throughput Screen to Identify Chemical Modulators of PINK1 Expression | 0.2% of 410,000 active | AID 624263, 2012 | PINK1 immunofluorescence, high-content cytometry, 24 h | Potency, µM (highest dose often 76.6 µM), for the others: top-dose activation (PINK1 increase), hits mostly activators; active = well fitted activation curve with a large enough effect; inconclusive = small, poorly fitted or top-dose-only effect; inactive = flat fitted curve, though single readings scatter; cell line not stated here;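 further: potency means the concentration at half of the fitted maximal effect; % of control where 0% means no effect; nearly all actives have a fitted effect of over 65% in size; a mitochondrial uncoupler was the plate control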
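Readout is PINK1 immunofluorescence, quantified alongside mitochondrial, cell and nuclear markers by laser-scanning microplate cytometry. Cells from a stable line were exposed to compound titrations (5 concentrations) for 24 hours, with CCCP controls.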
Sfp inh: qHTS Assay for Inhibitors of Bacillus subtilis Sfp phosphopantetheinyl transferase (PPTase) | 4'-phosphopantetheinyl transferase ffp (Bacillus subtilis), Q9F4F7 | Biochemical Sfp PPTase activity, qHTS | Potency, µM, for the others: max response, negative = inhibition, most hits filed as inhibitors | 3.5% of 310,000 active | AID 1490, 2009; active means well fitted inhibition curve with a large enough effect; inconclusive means small, poorly fitted or top-dose-only effect, or another doubt; inactive means no such curve, though single readings can be large or run the other way;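 further: the enzyme is Sfp with the accession as filed and its product quenches rhodamine fluorescence; potency means the concentration at half of the fitted maximal effect; 0% = enzyme reaction without inhibitor and -100% = no enzyme wells; top concentration of the series not given in the record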
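Step 1, compound plus 15 nM Sfp-PPTase, 15 min, room temperature. Step 2, add rhodamine-CoA (5 uM) and BHQ-2-YbbR (12.5 uM). Step 3, read 525/598 nm fluorescence at 0 and 30 min.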
D2 PAM: Beta-Arrestin HTS for Positive Allosteric Modulators of the Human D2 Dopamine Receptor: Potentiators | D(2) dopamine receptor (Homo sapiens), P14416 | DiscoveRx D2 beta-arrestin cells, luminescence, 90 min; 100% = 57 uM dopamine signal | potentiation, % (test concentration not listed) | 0.23% of 360,000 active; active = potentiation of 50% or more; inconclusive = 30% to 50%; inactive = 30% or less;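 further: compound concentration not given in the record; tested on top of an EC20 dose of dopamine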
Target sequence (P14416 whole entry, looked up): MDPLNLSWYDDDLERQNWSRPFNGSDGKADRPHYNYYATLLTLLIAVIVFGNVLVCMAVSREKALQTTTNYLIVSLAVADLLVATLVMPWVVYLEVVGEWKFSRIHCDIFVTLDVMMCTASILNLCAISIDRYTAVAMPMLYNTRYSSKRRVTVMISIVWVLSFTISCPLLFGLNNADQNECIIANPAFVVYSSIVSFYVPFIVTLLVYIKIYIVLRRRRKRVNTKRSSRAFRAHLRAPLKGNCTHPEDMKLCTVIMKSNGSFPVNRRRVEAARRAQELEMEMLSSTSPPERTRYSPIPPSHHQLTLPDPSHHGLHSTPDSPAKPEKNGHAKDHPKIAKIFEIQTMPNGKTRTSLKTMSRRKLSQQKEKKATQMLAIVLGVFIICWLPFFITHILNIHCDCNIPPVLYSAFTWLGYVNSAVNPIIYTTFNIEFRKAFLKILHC
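PathHunter beta-arrestin assay in DiscoveRx D2 cells. Compounds were added with an EC20 of dopamine (50 nM final) for 90 min at 37 deg C. Luminescence was read 1 h after detection reagent, with 57 uM dopamine as the EC100 control.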
TRPV1 PAM: HTS Assay for Compounds that Act as Potentiators of the Vanilloid Receptor 1; Transient receptor potential cation channel subfamily V member 1 (Homo sapiens), Q8NER1; TRPV1-expressing cells, Fluo-8 calcium influx, capsaicin EC20 potentiation; host cell line not named in the record; control for the full effect not named in the record; potentiation, % at 8.33 µM; 0.02% of 320,000 active; AID 540277, 2011; active means potentiation above 80%; inconclusive means 30% to 80%; inactive means below 30%; further: 0% is about no effect
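Fluo-8 calcium influx in TRPV1-expressing cells, kinetic read (ex 480/em 520 nm). Compound added and read 3 min for agonist activity, followed by capsaicin at EC20 final and 2 min further read for enhancement.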
D2 ag: Beta-Arrestin HTS for Positive Allosteric Modulators of the Human D2 Dopamine Receptor: Agonists. D(2) dopamine receptor (Homo sapiens), P14416. AID 624465, 2012. activation, % (no concentration beside the values). 0.084% of 360,000 active. DiscoveRx PathHunter D2 beta-arrestin, luminescence, 90 min; 100% = 57 uM dopamine signal; in the data active = activation above about 40%; inconclusive = about 15% to 40%; inactive = below about 15%; further: compound concentration not given in the record; the text of the record calls up to 30% inactive
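DiscoveRx PathHunter D2 beta-arrestin cells (2,100/well) attached overnight, then compound-stimulated 90 min at 37 C in HBSS/10 mM HEPES/0.1% Tween-20 buffer; beta-galactosidase complementation read by luminescence after 1 h at ambient temperature. Dopamine 57 uM final (EC100) as control.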
* = called active by the depositor; ? = inconclusive; . = no result given; & = joins results of further samples; [ ] = dose if it differs, or a comment.

Below each compound: Six1-Eya2 inh, CtBP-E1A inh, PINK1 modulator, Sfp inh, D2 PAM, TRPV1 PAM, D2 ag
CN1CCN(c2oc(-c3ccccc3)nc2S(=O)(=O)c2ccc(Br)cc2)CC1
 : -22, -19, 1.3%, -15%, -28, 4, -3.5
COc1cc(/C=N/NC(=O)CCn2nnc3ccccc32)ccc1O
 : 1, 2, 4.6%, 12%, 5, 1, 1.6
O=C(NC(=S)Nn1cnc2c(cnn2-c2ccccc2)c1=O)c1ccccc1
 : -12, -5, -0.1%, -9%, -5, -8, -1.5
Cn1c(SCC(=O)Nc2ccc(Cl)cc2)nc(O)cc1=O
 : 7, -5, 1.4%, 15%, -7, 7, -5.3
CCN(CC)S(=O)(=O)c1ccc(N2CCOCC2)c(NC(=O)c2[nH]c(C)c(C(C)=O)c2C)c1
 : -6, ., 17%, ., -4, ., 2.9
COc1ccccc1-c1nnc(SCCN2CCOCC2)n1-c1ccc(C)cc1
 : -3, 0, -2.2%, -26%, -22, -20, -1.9
O=C(C1=C[C@@H](c2ccc(Br)cc2)C[C@@H](OCCCCO)O1)N1CCN(Cc2ccccc2)CC1
 : -4, -3, -0.2%, -22%, -10, -30, -3.1
CSc1nc2sc3c(c2c2nnnn12)CCCC3
 : -1, 0, 0.3%[38.3 µM], -26%, -12, 0, -1.2
C=CCn1c(C(C)(C)C)nc2ccccc21
 : 1, 7, 1.0%, 28%, -6, -24, -0.8
Cn1c(=O)c2c(nc(Sc3ccccc3N)n2C)n(C)c1=O
 : -3, ., 0.9%, -12%, -13, -5, -4.5
CCOC(=O)c1sc(=NC(=O)c2ccccc2)n(C)c1C
 : 7, -7, 0.9%, 15%, 1, -4, -0.5
CC1=NN(C2=NS(=O)(=O)c3ccccc32)C(C)(O)C1 (stereo not drawn)
 : 1, -3, 2.4%, 8%, -2, ?, 3.3
COc1ccc(NC(=O)c2oc3cc(C)c(C)cc3c2C)c(OC)c1
 : 14, 5, -0.3%, 9%, -2, -6, -0.3
CC(CCc1ccccc1)NC(=O)CSc1ccccc1 (stereo not drawn)
 : 15, 1, -1.7%, 3%, -13, -2, -2.8
CC(C)CCn1nnnc1C(c1ccc(F)cc1)N1CCN(C(=O)c2ccco2)CC1 (stereo not drawn)
 : -2, 1, -2.5%, -3%, 6, 28, -4.2
O=C(NC1CCSc2ccccc21)c1ccc(C(F)(F)F)cc1 (stereo not drawn)
 : 4, -2, 4.4%, 26%, -8, -16, -6.7
CCN(C(=O)c1ccc(S(=O)(=O)N(C)C)cc1)C(C)C(=O)Nc1ccc(C)cc1 (stereo not drawn)
 : 16, 2, -0.5%, 14%, -2, -10, 4.0
Cc1noc(C)c1COC(=O)c1cccnc1SCC(=O)Nc1ccc2c(c1)OCO2
 : -15, -3, -3.1%, 8%, -11, -3, -0.1
O=C(O)C(F)(F)S(=O)(=O)O
 : 6, 1, 0.2%, 3%, -4, 16, -3.2
Cc1ccc(S(=O)(=O)CCC(=O)OCc2nnc(-c3ccccc3Br)o2)cc1
 : 5, -5, -0.9%, ., -5, 3, 5.7
Cc1cccc(NC(=O)C2CCN(S(=O)(=O)c3cccc4nsnc34)CC2)c1
 : -1, -5, 6.6%&15%, -4%, -12, -15, -5.2
CCN1CCN(c2cc(C)c3cc(NC(=O)Cc4ccccc4OC)ccc3n2)CC1
 : 6, 5, -1.3%, 28%, -13, 5, -2.9
Nn1cc(-c2ccccc2)nc1SCC(=O)NCCc1ccccc1
 : -23, -11, -0.2%, -4%, -8, -18, -4.1
CC1CC(C)CN(C(=O)c2ccc(NC(=O)c3ccc(=O)[nH]c3)cc2)C1 (stereo not drawn)
 : 6, 0, 0.0%, -5%, 2, ?, -3.1
Cc1csc(SCC(=O)NC(C)c2ccc(F)cc2)n1 (stereo not drawn)
 : 39, 14, -1.8%, 18%, -11, -9, -4.0
CCOC(=O)N1CCN(C(=O)C2CCN(S(=O)(=O)c3ccc(OC)cc3)CC2)CC1
 : 4, 3, 2.5%, 17%, -3, 0, -4.6
Fc1ccc2c(c1)C1C=CCC1C(c1cc3c(cc1Br)OCO3)N2 (stereo not drawn)
 : -17, -12, 27%[38.3 µM], ?, -4, 0, -1.1
CCN(CC1CCCN(CCc2cccc(OC)c2)C1)C(=O)c1ccoc1C (stereo not drawn)
 : -12, 1, -1.6%, 12%, -45, 2, -4.3
Cc1ccc(NC(=O)COc2ccccc2)cc1S(=O)(=O)N1CCCCC1
 : 2, 4, 2.9%, ., -8, ., 0.7
Cc1c(O)ccc2c(-c3ccccc3)cc(=O)oc12
 : 0, ., -1.2%, 7%, 6, -14, 3.7

Two entries from above, set out differently.
Compound	Six1-Eya2 inh	CtBP-E1A inh	PINK1 modulator	Sfp inh	D2 PAM	TRPV1 PAM	D2 ag
CCOC(=O)c1sc(=NC(=O)c2ccccc2)n(C)c1C	7	-7	0.9%	15%	1	-4	-0.5
CC1=NN(C2=NS(=O)(=O)c3ccccc32)C(C)(O)C1 (stereo not drawn)	1	-3	2.4%	8%	-2	?	3.3

Carrying on.
Below each compound: Six1-Eya2 inh, CtBP-E1A inh, PINK1 modulator, Sfp inh, D2 PAM, TRPV1 PAM, D2 ag
COC(CN(C)C(=O)C1CCC(CNS(=O)(=O)c2ccccc2)CC1)OC (stereo not drawn)
 : 4, ., 0.8%, 14%, 5, 1, 1.6
Cc1oc2cc([N+](=O)[O-])c(O)c([N+](=O)[O-])c2c1C(=O)c1ccc(Cl)cc1
 : -2, ., 1.1%, ?, -12, ., -7.6
CCCN1CCN(CC(=O)Nc2nnc(CC)s2)CC1
 : 10, 3, -0.7%, -10%, -9, -1, -6.0
COC(=O)[C@@]12CCCN1[C@H](c1ccc(-c3cccc(Cl)c3)c(OC)c1)[C@H]1C(=O)N(C)C(=O)[C@H]12
 : -14, -6, 5.5%, ., -6, -17, 0.0
COc1ccc(Nc2cc(Nc3ccc(OC)cc3)ncn2)cc1
 : 1, 10, 3.1%, 1%, 4, 17, 1.4
Cc1cc(=O)[nH]c(SCC(=O)Nc2ccc(F)c([N+](=O)[O-])c2)n1
 : 2, 7, 0.8%, 8%, -4, 6, -1.5
COc1ccc(-n2c(=O)c3ccccc3n(CC(=O)NC3CCCC3)c2=O)cc1
 : 13, 4, -1.9%, -17%, -5, 1, -1.5
Cc1ccnc(NC(=O)C(C)n2cc([N+](=O)[O-])cn2)c1 (stereo not drawn)
 : -14, -4, 0.9%, 4%, -5, 13, -0.1
Cc1cc(=O)n2nc(N3CCC(C(=O)NCc4ccccc4F)CC3)sc2n1
 : -24, ., 0.5%&1.7%, 25%, -1, 7, -0.7
CC(=O)N1CCN(c2ccc(NC(=S)NC(=O)COc3ccc(C(C)(C)C)cc3)cc2)CC1
 : 2, 0, 3.2%, ?, -10, 27, -3.4
COc1ccc(N=NC2=C(O)CC(C)(C)CC2=O)c(OC)c1
 : -12, -13, -1.3%, 10%, -9, -4, -10
Cc1cc(C)c2ccc3c(C)c(C)n(C)c3c2n1
 : -10, -10, 2.2%, 19%, -6, 12, -1.4
COC(=O)CCNC(=O)Cc1ccc(S(=O)(=O)N2CCCCC2)s1
 : -1, -20, -2.1%, ., -14, -11, -0.7
O=C(CSc1nnc2scc(-c3ccccc3)n12)N1CCN(Cc2ccccc2)CC1
 : 4, -9, 0.9%, -3%, -25, 9, 0.7
Cc1ccc(/C=N/OC(=O)c2c(C)noc2-c2snnc2C)cc1
 : 7, 8, 2.8%, 13%, -10, ., -2.8
O=c1c(-c2ccc3c(c2)OCCO3)c(C(F)(F)F)oc2cc(O)cc(O)c12
 : -3, -3, 16%, 15%, 7, 16, -2.0
COc1ccccc1-c1cc(-c2ccccc2)nc(SC(C(N)=O)c2ccccc2)c1C#N (stereo not drawn)
 : 4, 1, -1.2%, -16%, -7, 3, -2.6
Cc1cc(N2CCCC2=O)cc(C)c1S(=O)(=O)NCCOc1ccc(C(C)(C)C)cc1
 : -1, 2, -0.9%, 6%, -14, -6, 2.3
Cc1ccccc1NC(=O)c1c(F)c(F)c(F)c(F)c1F
 : 4, 4, 7.4%[38.3 µM], 24%, 3, -17, 0.3
COCCNC(=O)/C(C#N)=C/c1c(N2CCN(c3ccc(OC)cc3)CC2)nc2c(C)cccn2c1=O
 : -29, -14, 4.0%, -13%, 5, -11, -1.0
CC(C)(CCO)NC(=S)NC1CC2C=CC1C2 (stereo not drawn)
 : 5, 4, 0.3%, 13%, -5, -1, -4.3
CCCCNC(=O)CSc1nc(COc2ccccc2)nc2ccccc12
 : 0, 1, -0.5%, -7%, -2, -11, -0.8
CCCC(C(=O)NC1CCCC1)N(C(=O)c1snc(C(N)=O)c1N)c1ccc(OCC)cc1 (stereo not drawn)
 : 9, 1, 0.1%, 8%, -16, -2, -3.3
Nc1ccccc1Nc1ccccc1
 : ?, ?, -1.5%, -27%, -6, -2, 1.7
O=C(CN1CCN(Cc2ccccc2)CC1)N/N=C/c1ccccc1F
 : 0, -3, 0.3%, 3%, -13, 11, 1.4
COCCNC(=O)[C@@H]1CSC2c3ccccc3C(=O)N21 (stereo partly drawn)
 : 7, 5, 1.7%, 9%, -7, 2, -4.3
CN(C)C(=O)COC(=O)/C=C/c1ccccc1[N+](=O)[O-]
 : -1, 6, 2.4%, 19%, -9, -2, -3.4
COc1ccc(Cn2c(O)c(C=Nc3ccccc3)c3ccccc3c2=O)cc1
 : 0, 0, 1.5%, 3%, -7, 9, -6.1
CCOC(=O)/C(C#N)=C/c1c(N2CCN(C)CC2)nc2c(C)cccn2c1=O
 : -4, 1, -1.2%, 10%, -16, -1, -3.5
COC(=O)c1cc(C(=O)c2ccc(Cl)cc2Cl)cn1C
 : -6, 3, -1.6%, 3%, 10, 21, -0.8
Cc1ccc(-c2ccc(=O)n(Cc3ccc(F)cc3Cl)n2)cc1
 : 13, 11, -0.2%, -22%, -9, -6, 1.7
COc1ccc(/C=N/n2cnc3c(sc(=S)n3-c3ccccc3)c2=O)cc1
 : 11, 8, 17%, 8%, -1, 4, -1.5

Source: PubChem BioAssay (National Center for Advancing Translational Sciences (NCATS))
